# KCNQ2 block: KCNQ2 potassium channel inhibitors, primary screen, cell-based, CHO-K1, FluxOR thallium flux, B-score (AID 2156). 20 min; stronger effect = lower value; only compounds with negative scores are shown here; some inactives read as strong as hits. B-score at 10 µM. hit rate 1.1% among 310,000;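 active = fluorescence ratio B-score at most minus 3 library SDs, with starting brightness B-score within 2 library SDs, cut at about -5.5 in these data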
# Target sequence (O88943 whole entry, looked up): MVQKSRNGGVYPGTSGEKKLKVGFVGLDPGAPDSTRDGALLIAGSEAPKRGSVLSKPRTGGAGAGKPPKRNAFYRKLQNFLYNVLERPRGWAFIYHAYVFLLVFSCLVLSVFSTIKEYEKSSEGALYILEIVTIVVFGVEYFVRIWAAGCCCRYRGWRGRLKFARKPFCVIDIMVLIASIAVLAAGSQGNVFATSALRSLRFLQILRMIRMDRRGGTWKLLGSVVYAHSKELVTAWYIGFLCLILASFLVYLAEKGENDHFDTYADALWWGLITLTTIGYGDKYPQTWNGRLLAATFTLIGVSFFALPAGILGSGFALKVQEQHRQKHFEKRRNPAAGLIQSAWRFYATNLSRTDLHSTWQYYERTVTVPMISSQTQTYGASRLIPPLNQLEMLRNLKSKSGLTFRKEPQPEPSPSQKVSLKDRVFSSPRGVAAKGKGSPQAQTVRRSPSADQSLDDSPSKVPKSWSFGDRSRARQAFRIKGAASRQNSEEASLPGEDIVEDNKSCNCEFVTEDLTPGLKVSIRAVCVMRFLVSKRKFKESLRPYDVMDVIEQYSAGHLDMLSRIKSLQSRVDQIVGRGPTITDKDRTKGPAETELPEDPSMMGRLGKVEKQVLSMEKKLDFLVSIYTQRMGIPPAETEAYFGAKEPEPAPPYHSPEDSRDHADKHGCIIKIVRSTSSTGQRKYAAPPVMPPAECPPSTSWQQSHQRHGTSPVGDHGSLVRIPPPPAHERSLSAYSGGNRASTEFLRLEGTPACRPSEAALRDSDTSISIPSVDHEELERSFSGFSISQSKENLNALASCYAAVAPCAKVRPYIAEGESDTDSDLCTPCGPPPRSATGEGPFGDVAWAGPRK
# KCNQ2 block baseline: recorded beside KCNQ2 block, whose call it bears; B-score; measured here: initial fluorescence intensity artifact check;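 brightness before thallium and not channel activity; 0 = typical well and far values either way flag optical interference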
# The depositor's hits bear a star; i = inactive. These rows are one share of the data (hit frequency here may not be typical).
# Results follow in this order: KCNQ2 block baseline, KCNQ2 block
Cc1ccccc1C(=O)NC(CC(C)C)C(=O)NN1C(=O)c2ccccc2C1=O (configuration not stated)
    -0.69, i
Cc1ccc(/C=N/c2sc3c(c2C#N)CCC3)o1
    -1.9, i
CCN1CCN(CC(=O)n2c3c(c4ccccc42)CC(C)CC3)CC1 (configuration not stated)
    1.4, i
CCOC(=O)c1c(C)[nH]c(C(=O)CSc2nccc(C)n2)c1C
    -0.33, i
CCOc1cc(NC(=S)NCC2CCCO2)c(OCC)cc1NC(=O)c1ccccc1F (configuration not stated)
    -0.98, i
COc1ccc(Cc2nnc(CCc3ccccc3)s2)cc1
    0.27, i
Cc1noc(C)c1NC(=O)NC(c1ccccc1)c1ccccc1
    0.5, i
CCN(C(=O)c1ccc2c(Cl)c3c(nc2c1)CCC3)c1ccc(C)c(C)c1
    1.1, i
CCOC(=O)c1[nH]c2cc3c(cc2c1CCCN1C(=O)c2ccccc2C1=O)OCCO3
    0.02, i
Cc1ccc(S(=O)(=O)Nc2nc3ccccc3nc2NCC2CCCO2)c(C)c1 (configuration not stated)
    -1.4, i

# Some of the entries above, set out differently.
mol	KCNQ2 block baseline	KCNQ2 block
Cc1noc(C)c1NC(=O)NC(c1ccccc1)c1ccccc1	0.5	i
CCOc1cc(NC(=S)NCC2CCCO2)c(OCC)cc1NC(=O)c1ccccc1F (configuration not stated)	-0.98	i
Cc1ccc(/C=N/c2sc3c(c2C#N)CCC3)o1	-1.9	i
CCN1CCN(CC(=O)n2c3c(c4ccccc42)CC(C)CC3)CC1 (configuration not stated)	1.4	i
CCOC(=O)c1[nH]c2cc3c(cc2c1CCCN1C(=O)c2ccccc2C1=O)OCCO3	0.02	i

# Single records, from the list above. Order of values: KCNQ2 block baseline, KCNQ2 block
# Cc1ccccc1C(=O)NC(CC(C)C)C(=O)NN1C(=O)c2ccccc2C1=O (configuration not stated) as listed: -0.69, i
# Cc1ccc(S(=O)(=O)Nc2nc3ccccc3nc2NCC2CCCO2)c(C)c1 (configuration not stated) as listed: -1.4, i
# CCOC(=O)c1[nH]c2cc3c(cc2c1CCCN1C(=O)c2ccccc2C1=O)OCCO3 as listed: 0.02, i
# CCOC(=O)c1c(C)[nH]c(C(=O)CSc2nccc(C)n2)c1C as listed: -0.33, i

# Next section
# Results follow in this order: KCNQ2 block baseline, KCNQ2 block
CCCSc1nc2c(cnn2-c2ccc(C)cc2)c(=O)[nH]1
    0.43, i
COc1ccc(CC(=O)OCC(=O)Nc2ccc(C(=O)Nc3ccc(OC)cc3)cc2)cc1
    -1.7, i
COc1ccc(CNS(=O)(=O)c2cc(-c3cc(C)no3)ccc2OC)cc1OC
    0.1, i
C#Cc1ccc([C@H]2C=C(C(=O)N3CCN(Cc4ccccc4)CC3)O[C@@H](OCC)[C@@H]2CCCO)cc1
    -0.89, i
CCN1CCN(CCn2c(=S)[nH]c3ccccc3c2=O)CC1
    3.1, i
CCOC(=O)N1CCN(c2nc(-c3ccccc3)c3ccccc3n2)CC1
    0.57, i
CC(C)[C@@H](C(=O)NC1CCN(Cc2ccccc2)CC1)N1C(=O)N2CCc3c([nH]c4ccccc34)[C@@]2(C)C1=O
    1.1, i
O=C(CCC(=O)Nc1cccnc1)Nc1cccnc1
    1.6, i
CCOC(=O)c1ccc(NC(=O)c2ccc(NC(=O)C3CCCO3)cc2)cc1 (configuration not stated)
    0.31, i
O=C(N/N=C/c1cc(Br)c(O)c(Br)c1O)c1cccnc1
    0.96, i
COc1ccc(OC)c2c1cc(C(=O)N[C@@H](Cc1ccccc1)C(=O)O)n2C
    -1.2, i
COc1cccc(N2CCN(CC(=O)Nc3nc(C)c(C(=O)N(C)C)s3)CC2)c1
    -0.9, i
CCc1cccc(NC(=O)CN(c2ccc(OC)cc2)S(=O)(=O)c2c(C)n[nH]c2C)c1
    -0.55, i
COc1ccc2c(ccn2S(=O)(=O)c2ccccc2)c1
    0.5, i
CC1CC2(NC(=O)NC2=O)C(C)CN1C (configuration not stated)
    0.01, i
O=[N+]([O-])c1ccc(N=Cc2c(O)ccc3ccccc23)cc1
    0.34, i
C/C(=N\NC(=O)c1ccncc1)C12CC3CC(CC(C3)C1)C2
    0.97, i
CC1=CC(C)(C)N2C(=O)C3(C(C#N)=C(N)OC4=C3C(=O)CC(C)(C)C4)c3c(C)c(C)cc1c32 (configuration not stated)
    -0.23, i
Nc1sc(-c2ccccc2)c(Cc2ccccc2)c1C(=O)O
    0.11, i
Cc1cc(C)c(NC(=O)CNC(=O)c2cc([N+](=O)[O-])ccc2N2CCOCC2)c(C)c1
    -0.01, i
N#CCCN(C(=O)COc1ccc(Cl)cc1Cl)c1ccccc1
    -0.01, i
CN1CCN(c2ccccc2NC(=O)COc2ccc(Cl)cc2)CC1
    1.4, i
CC(=O)c1sc(NC(=O)CCOc2ccccc2)nc1C
    -0.51, i
COc1ccc(CNS(=O)(=O)c2ccc3c(c2)NC(=O)CS3)cc1
    0.12, i
COc1ccc(Nc2ncnc3c2cnn3-c2ccccc2)cc1OC
    0.54, i
Cc1cc2ncn(C3CC(=O)N(Cc4ccccc4)C3=O)c2cc1C (configuration not stated)
    1.4, i
CN(C(=O)CSc1nc2cc(C(=O)O)ccc2c(=O)n1Cc1ccccc1)C1CCS(=O)(=O)C1 (configuration not stated)
    -0.26, i
CCC(=O)Nc1cc(NC(=O)CSc2ncc(-c3ccc(F)cc3)n2Cc2ccco2)ccc1C
    0.46, i
CCOC(=O)c1ccc2[nH]c(C)cc(=O)c2c1
    1.2, i
OCCNC(=S)NC1CCCCC1
    1.3, i
COc1ccccc1NC(=O)N1CCCC(CNC(=O)c2ccccc2Cl)C1 (configuration not stated)
    1.5, i
CN(C(=O)COc1nnc(-c2cccs2)c(-c2cccs2)n1)c1ccccc1
    -3.3, i
CC(=O)C1=C(O)C(=O)N(c2cccnc2)C1c1cccc([N+](=O)[O-])c1 (configuration not stated)
    -0.01, i
COc1ccc(CNC(=O)C2CCCN(S(=O)(=O)c3cc(C)ccc3OC)C2)cc1 (configuration not stated)
    -0.19, i
NC1=NC(=O)/C(=C\c2cccnc2)S1
    0.09, i
O=C(Nc1cccc(F)c1)N1CCCCCC1
    0.67, i
CN1CCN(C(=S)c2ccc(-c3cccc([N+](=O)[O-])c3)o2)CC1
    -0.03, i
CCN(CC)c1ccc(/C=N/NC(=O)OC)c(O)c1
    0.67, i
N/C(CC(=O)Nc1ccc(F)cc1F)=N\OC(=O)c1cccs1
    -0.93, i
O=C(c1ccco1)N1CCN(C(=O)c2snc3ccc(Cl)cc23)CC1
    -0.07, i
COc1ccc(C(=O)C2CCCN(C3Cc4ccccc4C3)C2)c(OC)c1 (configuration not stated)
    -0.82, i
O=C(c1ccccc1)N1CCN(C(=O)c2nn3c(C(F)(F)F)cc(-c4ccco4)nc3c2Br)CC1
    2, i
CN(C)CCCNc1ccc(S(N)(=O)=O)cc1[N+](=O)[O-]
    -0.18, i
Cc1cc(C)cc(N2CC(O)Cn3c2nc2c3c(=O)[nH]c(=O)n2C)c1 (configuration not stated)
    -0.09, i
Cc1cc(C(=O)NNC(=O)COc2ccccc2Cl)n[nH]1
    -1.4, i
CC(=O)Nc1ccc(NC(=O)C/C(C)=N/NC(=O)COc2cc(C)c(Br)cc2Br)cc1
    2.3, i
COCCN(C(=O)CSc1nnc(-c2ccccc2C)n1C)c1c(N)n(Cc2ccccc2)c(=O)[nH]c1=O
    1.4, i
Cc1ccc(-c2nnc(CSc3nnc(C)s3)o2)cc1
    0.55, i
COc1ccccc1NC(=O)c1ccccc1SC
    -0.4, i
O=C(Nc1nc2c(F)cc(F)cc2s1)C1CCN(C(=O)c2ccc(F)cc2)CC1
    -1, i

# Next section:
# Results follow in this order: KCNQ2 block baseline, KCNQ2 block
CC(=O)N1c2ccc(S(=O)(=O)N3CCC(C(=O)NCCc4ccc(Cl)cc4)CC3)cc2CC1C (configuration not stated)
    0.01, i
COC(=O)c1cc(S(=O)(=O)N2CCN(Cc3ccccc3)CC2)c[nH]1
    -0.04, i
N#Cc1nc(-c2ccc(OCc3ccccc3Cl)cc2)oc1NCCCn1ccnc1
    -0.01, i
C=CCn1c(C)cc(C(=O)COC(=O)COc2ccccc2C#N)c1C
    0.53, i
CCN(CC(=O)Nc1ccc(NC(C)=O)cc1)C(=O)c1cccc(-n2cccc2)c1
    -0.49, i
O=c1[nH]c(Nc2ccccc2Cl)cc2ccccc12
    1.1, i
COc1ccc(-n2nc3cc(C)c(N)cc3n2)cc1Cl
    2.6, i
COc1ccc(C(=O)CC(c2ccccc2)C2CCCCC2=O)cc1 (configuration not stated)
    -2.8, i
COc1ccc(N(CC(=O)N2CCCCCC2)S(=O)(=O)c2ccccc2[N+](=O)[O-])c(OC)c1
    -1.4, i
O=C(Nc1ccccc1)Nc1c(F)cccc1F
    0.42, i
CC(NC(=O)Nc1ccc(Cl)cc1)C1CCCO1 (configuration not stated)
    -0.75, i
CCCCNC(=O)C1CC(=O)N(CCc2ccccc2)C1 (configuration not stated)
    -1.2, i
CC(=O)c1sc(NC(=O)CN2C(=O)CCC2=O)nc1C
    -0.4, i
O=C(Nc1ccnn1C1CCN(CC(O)CO)CC1)C1CCCC1 (configuration not stated)
    1.2, i
CCOC(=O)N1CCN(C(=O)c2ccc3c(c2)N(Cc2cccc(Cl)c2)C(=O)c2ccccc2S3=O)CC1 (configuration not stated)
    -0.57, i
Cc1occc1C(=O)N1CCN(S(=O)(=O)c2ccccc2)CC1
    0.6, i
O=C(CNC(=O)c1ccc(=O)[nH]c1)Nc1ccc(F)c(F)c1
    1.4, i
CCOc1ccccc1CN1CCN(CC2CC2)CC1CCO (configuration not stated)
    -1.2, i
Cc1ccc(NC(=O)C2CCN(S(=O)(=O)c3c(C)nn(C)c3C)CC2)c(Cl)c1
    0.6, i
CC(C)n1c(C(F)(F)F)nc2cc(C(=O)N3CCOCC3)ccc21
    2.5, i
Cc1[nH][nH]c(=O)c1C(c1cc(Br)ccc1O)c1c(C)[nH][nH]c1=O
    1, i
CCn1cc(Cl)c(C(=O)Nc2nccs2)n1
    -0.05, i
CCN(CC)S(=O)(=O)c1ccc(C(=O)OCCN2C(=O)c3cccc4c(N5CCOCC5)ccc(c34)C2=O)cc1
    0.08, i
COc1ccc(NC(=O)C23CCC(C)(C(=O)O2)C3(C)C)cc1 (configuration not stated)
    -0.18, i
Cc1ccccc1C(=O)Nc1ccc2c(C#N)c3nc4ccccc4nc3n2c1
    -1.5, i
O=C(Nc1cnn(C23CC4CC(CC(C4)C2)C3)c1)c1cnn2c(C(F)(F)F)cc(-c3ccco3)nc12
    -1.1, i
CCCCOC(=O)CSC1=C(C#N)C(c2ccccc2OC)C(C#N)C(=O)N1 (configuration not stated)
    -0.89, i
COCCNC(=O)CSc1nc(-c2ccccc2)cs1
    -1.1, i
CCOC(=O)c1cc(C)sc1NC(=O)c1ccc(Cl)s1
    0.07, i
CCCCc1nc2ccccc2c(=O)n1NC(=O)c1c(O)c2c(n(CC(C)C)c1=O)CCCC2
    0.49, i
C=CCn1c(NS(=O)(=O)c2ccccc2)c(S(=O)(=O)c2ccc(C)cc2)c2nc3ccccc3nc21
    -0.68, i
Cc1cc(C)n(-c2nnc3n2N=C(c2c[nH]c4ccccc24)CS3)n1
    -0.18, i
O=C(COC(=O)c1cccs1)NC1CCCC1
    -0.38, i
Cc1ccc2nc(SCC(=O)c3cc(C)n(C)c3C)[nH]c2c1
    0.43, i
CNS(=O)(=O)c1cn(CC(=O)NCc2ccc(F)cc2)cc1S(=O)(=O)NC
    -0.07, i
CCOC(=O)C1=C(C)Nc2nc(=S)[nH]n2C1c1ccc(Cl)cc1 (configuration not stated)
    -0.7, i
Cc1cc(C)cc(-n2cccc2/C=C2/C(=N)N3C(=NC2=O)SN=C3S(C)(=O)=O)c1
    -0.11, i
CSc1cccc(NC(=O)/C=C/c2ccc(Cl)cc2)c1
    0.47, i
CCOc1ccc(Cc2nc(C)c(CC(=O)N3CCCCC3)c(=O)[nH]2)cc1
    1, i
Cc1ccc(C)c(NC(=O)Cc2nc(CCl)cs2)c1
    0.31, i
CCOc1cc(/C=N/Nc2cc(C)nc3ccc(C)cc23)ccc1O
    -0.35, i
CN1C(=O)C(O)(C2COC(C)(C)CC2=O)c2ccccc21 (configuration not stated)
    -1.6, i
Cc1ccc(S(=O)(=O)NNc2nnc(C)c(=O)[nH]2)cc1
    0.28, i
Cc1cccc(OCC(=O)N2CCN(S(C)(=O)=O)CC2)c1
    -1, i
CCCCn1c(SCC(=O)Nc2ccc3c(c2)OCO3)nc2c1c(=O)n(C)c(=O)n2C
    0.54, i
CCC1CCCCN1C(=O)COc1c(Br)cc(Br)c2cccnc12 (configuration not stated)
    0.18*, -7.8*
COCCN1C(=O)/C(=C/c2ccc(N3CCCC3)cc2C)SC1=S
    4.3, i
CCSCc1nnc(SCC(=O)Nc2cc(F)ccc2C)n1C
    -0.77, i
Cc1[nH]nc2c1C1(CCN(C(=O)c3ccccc3)CC1)C(C#N)=C(N)O2
    2.8, i
Cc1ccc(C(c2nnnn2C2CCCC2)N2CCc3ccccc32)cc1 (configuration not stated)
    0.17, i

# Going on with the list.
# Results follow in this order: KCNQ2 block baseline, KCNQ2 block
Clc1nc(-c2n[nH]nc2Cl)n[nH]1
    -3, i
Cc1ccc(S(=O)(=O)N2C(=O)C(C)SC2=Nc2ccccc2)cc1 (configuration not stated)
    0.55, i
Cc1ccc(S(=O)(=O)Nc2ccccc2CNc2ccc(Br)cn2)cc1
    -0.65, i
Cc1ccc2nsnc2c1NC(=O)c1ccc(-c2cc(Cl)ccc2Cl)o1
    -2.2, i
CCC1Oc2ccccc2N(CC(=O)NCC2CCCO2)C1=O (configuration not stated)
    0.49, i
Cc1cc(C)cc(N(CC(=O)Nc2ccc(C)cc2Cl)S(=O)(=O)c2c(C)[nH]c(=O)[nH]c2=O)c1
    -0.24, i
COc1ccc(NC(=O)CSc2nc3cccnc3n2C)cc1
    -0.1, i
